HSV replic up: enhancers of HSV replication in host cells, fold increase, host cell viability; HSV replication augmentation in cells; maximum fold increase; hit rate 0.005% among 220,000; AID 1956, 2009;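 active = peak rise of 1.5-fold or more in the series; tested in PC3 cells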;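 note: first round at 10 µM; read as green reporter fluorescence; hits show the peak of a series up to 25 µM; 1 = signal of infected wells without compound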
HSV replic up primary fold: second read-out of HSV replic up, no call of its own (marks repeat the call); fold increase; compound at 10 µM; measured here: primary screen fold increase 10 uM; tested in PC3 cells;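 GFP signal in the first replicate; 1 = infected wells without compound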
* = called active by the depositor; i = inactive. A portion of the library; the hit share may differ from the screen's.

compound	HSV replic up	HSV replic up primary fold
O=C(Nc1ccc(Cl)c(C(F)(F)F)c1)[C@@H]1CC=C[C@@H]2CCN(Cc3ccccc3)C(=O)[C@@H]21	i	0.94
Cc1ccc(NC(=O)c2ccc(F)cc2F)cc1	i	0.85
CC(C)(C)OC(=O)N1CCC(CC2CC(c3ccccc3)=NO2)(C(=O)O)CC1 (stereo not drawn)	i	0.85
COc1ccc(-c2noc3c2-c2nc(-c4ccc(C)cc4)sc2CC3)cc1	i	0.69
Cc1nc2c(c(=O)n1CCC(C)C)c1nc3ccccc3nc1n2Cc1ccc2c(c1)OCO2	i	0.99
CCOC(=O)C1=C(C)N(CCCC(=O)O)C(=O)NC1c1ccccc1OS(=O)(=O)c1ccc([N+](=O)[O-])cc1 (stereo not drawn)	i	0.98
CC(Cc1ccc(O)c(O)c1)C(C)Cc1ccc(O)c(O)c1 (stereo not drawn)	i	0.77
Cc1cc(Nc2cc(Cl)nc(Sc3ccc(NC(=O)C4CC4)cc3)n2)n[nH]1	i	0.57
O=C1c2ccccc2S(=O)(=O)c2cc(C(=O)N3CCC(C(=O)N4CCCCC4)CC3)ccc21	i	1.1
COc1ccc(CNC(=O)[C@@H]2CC=C[C@@H]3CCN(C4CC4)C(=O)[C@@H]32)cc1	i	0.88
COc1ccc(-c2csc(NCCc3nc4cc(Cl)c(N5CCCCC5)cc4n3CCOCCO)n2)cc1	i	0.98
COC(C[C@@H]1O[C@H]1[C@H](O)[C@@H](C)OCc1ccccc1)OC	i	0.82
O=C(NCCNC(=O)C(F)(F)F)c1ccncc1	i	0.87
CC(Nc1nc(-c2ccc(F)cc2)cs1)c1nc2cc(C(F)(F)F)ccc2n1CCCO (stereo not drawn)	i	0.56
CCCCNC(=O)c1onc(CSc2cc(C)cc(C)c2)c1C(=O)NCCCC	i	1.1
O=C1NC(O)(c2ccccc2)Oc2ccccc21 (stereo not drawn)	i	0.81
COc1cccc(C2=CC(=O)CCC2)c1	i	1.1
CC(=O)C[C@H]1c2cc(C(F)(F)F)ccc2S(=O)(=O)N1C1CCCCC1	i	0.67
COc1cccc(CN2C(=O)[C@@H]3Cc4c([nH]c5ccccc45)C(C)(C)N3C2=O)c1	i	0.97
O=C(NCc1nc2ccccc2[nH]1)C1=C[C@@H](c2ccc(C(F)(F)F)cc2)C[C@@H](OCCCCO)O1	i	0.68
COC(=O)CCC(=O)OC1(C)C(=O)C2=CN(Cc3ccccc3)C(c3ccc(OC)cc3)=CC2=C(Br)C1=O (stereo not drawn)	i	0.87
Cc1nnc(SCc2ccccc2)nc1-c1ccccc1	i	0.85
Cc1coc2c(C)c3oc(=O)c4c(c3cc12)CCCC4	i	1
O=C(Nc1ccccc1)C1=C[C@H](c2ccccc2)C[C@H](OCCCCO)O1	i	1.2
CCCc1nc(C)c2c(=O)[nH]c(-c3cc(S(=O)(=O)N4CCN(CC)CC4)ccc3OCC)nn12	i	1.1
N[C@@H](Cc1cc(I)c(Oc2cc(I)c(O)c(I)c2)c(I)c1)C(=O)O	i	0.78
CC1(c2nnc(Cc3ccccc3)o2)CC(c2ccc(Br)cc2)=NO1 (stereo not drawn)	i	0.93
OC1(c2ccc(Cl)cc2)CCN(Cc2c[nH]c3ccccc23)CC1	i	0.82
O=C(Nc1ccc(Cl)c(C(F)(F)F)c1)[C@@H]1CC=C[C@@H]2CCN(C3CC3)C(=O)[C@@H]21	i	1.1
CC1(C)CC(=O)C=C(c2cccc3c2oc2ccccc23)C1	i	1.1

A second format for some results above:
O=C(Nc1ccccc1)C1=C[C@H](c2ccccc2)C[C@H](OCCCCO)O1
  HSV replic up: i
  HSV replic up primary fold: 1.2
CCCc1nc(C)c2c(=O)[nH]c(-c3cc(S(=O)(=O)N4CCN(CC)CC4)ccc3OCC)nn12
  HSV replic up: i
  HSV replic up primary fold: 1.1
N[C@@H](Cc1cc(I)c(Oc2cc(I)c(O)c(I)c2)c(I)c1)C(=O)O
  HSV replic up: i
  HSV replic up primary fold: 0.78
CC1(c2nnc(Cc3ccccc3)o2)CC(c2ccc(Br)cc2)=NO1 (stereo not drawn)
  HSV replic up: i
  HSV replic up primary fold: 0.93

The listing picks up; the 3 compounds before the break are reprinted first.
compound	HSV replic up	HSV replic up primary fold
OC1(c2ccc(Cl)cc2)CCN(Cc2c[nH]c3ccccc23)CC1	i	0.82
O=C(Nc1ccc(Cl)c(C(F)(F)F)c1)[C@@H]1CC=C[C@@H]2CCN(C3CC3)C(=O)[C@@H]21	i	1.1
CC1(C)CC(=O)C=C(c2cccc3c2oc2ccccc23)C1	i	1.1
C=C1CCN([C@@H](Cc2ccccc2)C(=O)NCCCc2ccccc2)S(=O)(=O)c2ccccc21	i	0.89
CCCCCCCCCOC(=O)C1N2C(=O)[C@@H](NC(=O)COc3ccccc3)[C@H]2SC1(C)C (stereo partly drawn)	i	0.94
CC(C)NCC(O)COc1ccc(COCCOC(C)C)cc1 (stereo not drawn)	i	0.98
C=CCOC(=O)C1=C[C@@H](c2coc3ccccc3c2=O)C[C@@H](OCCCCO)O1	i	1
COc1ccc(-c2ccc3oc(-c4ccsc4)c(-c4ccc(OC)cc4)c3c2)cc1	i	0.89
COc1ccccc1CNC(=O)c1cc(-c2ccccc2)nn1CC1CC(c2cccnc2)=NO1 (stereo not drawn)	i	0.88
Cc1ccc(-c2ccc3c(c2)S(=O)(=O)c2ccccc2C3=O)cc1	i	0.86
Nc1ccc(S(N)(=O)=O)cc1	i	0.98
CCO[C@H]1OC(C(N)=O)=C[C@@H](C2CC2)[C@@H]1CCCO	i	0.63
Cc1ccc(CNC(=O)c2ccc3c(c2)S(=O)(=O)c2ccccc2C3=O)cc1	i	0.82
COc1ccc(CCNC(=O)c2c(O)c3cccc4c3n(c2=O)CC4)cc1OC	i	0.96
O=C1C=CC[C@H](/C=C/C[C@@H](O)C[C@H](O)CCc2ccccc2)O1	i	0.69
CCCCCCCCCCCCN1[C@@H](CC(=O)O)c2cc(F)ccc2S1(=O)=O	i	0.72
Cc1cc[n+]2n1CC(O)C2 (stereo not drawn)	i	0.97
CC(C)(C)CN1C(N)=NC[C@@H]1c1ccccc1	i	0.84
CN1CCN(Cc2nc3c(c(=O)[nH]c(=O)n3C)n2Cc2c(F)cccc2Cl)CC1	i	0.67
O=C1CC2(CCCC2)Oc2ccc(F)cc21	i	0.83
Clc1ccc(-n2nnc(-c3ncc[nH]3)n2)cc1Cl	i	0.94
CN1C(=O)c2c(sc3c2CC(C)(C)SC3)N2CCN=C12	i	0.96
O=C(NCc1ccccn1)C1(C(F)(F)F)C/C(=C\CCO)CCCO1 (stereo not drawn)	i	0.97
O=C(O)Cc1c[nH]c2ccc(O)cc12	i	0.85
O=S1(=O)CCOC[C@H](Cc2ccccc2)N1Cc1ccccc1F	i	0.85
COC(=O)c1ccc[n+](CCc2c[nH]c3ccccc23)c1	i	2
O=C1C=C(c2cccc3c2oc2ccccc23)CCC1	i	0.91
CNNCc1ccc(C(=O)NC(C)C)cc1	i	1.1
CC1(c2nnc(-c3ccccc3)o2)CC(c2ccc([N+](=O)[O-])cc2)=NO1 (stereo not drawn)	i	0.85
O=C(NCCCN1CCOCC1)c1onc(CSc2ccccn2)c1C(=O)NCCCN1CCOCC1	i	1.1
O=C1C=C(c2ccc3[nH]ccc3c2)CCC1	i	0.9
CCO[C@H]1OC(C(=O)O)=C[C@@H](c2ccccc2)[C@@H]1CCCO	i	0.8
O=C1C=C(c2ccc(F)nc2)CCC1	i	1.2
COc1ccc(N2C(=O)CC(NCc3cccc(F)c3)C2=O)cc1 (stereo not drawn)	i	0.98
COc1ccc(S(=O)(=O)N2CC(C)N(S(=O)(=O)c3ccc(OC)cc3)CC2C)cc1 (stereo not drawn)	i	0.89
NC1=NC[C@H](Cc2ccccc2)N1CC1CCCCC1	i	0.73
COc1ccc2c(c1)C(C)(CCN)C(=O)N2C (stereo not drawn)	i	0.84
CNCC[C@@H](Oc1ccccc1C)c1ccccc1	i	1.1
CC(=O)Nc1nc(CC(=O)c2ccccc2)cs1	i	0.94
Nc1ncnc2c1nc(Br)n2[C@@H]1O[C@@H]2COP(=O)(O)O[C@H]2[C@H]1O	i	0.82
CCCCOc1ccc(Cl)cc1Nc1nc(NCCO)nc(N2CCCC2)n1	i	0.68
CCOC(=O)C[C@H]1c2ccccc2S(=O)(=O)N1C1CC1	i	0.84
CCOC(=O)C[C@H]1c2ccccc2S(=O)(=O)N1c1ccccc1	i	0.82
Nc1ccc(C#Cc2ccc3sc4ccccc4c(=O)c3c2)cc1	i	0.85
COc1ccc(N2CCCn3c2nc2c3c(=O)n(CCc3ccccc3)c(=O)n2C)cc1	i	0.96
CCC1=C(C)CN(C(=O)NCCc2ccc(S(=O)(=O)NC(=O)NC3CCC(C)CC3)cc2)C1=O (stereo not drawn)	i	0.93
O=C1c2cc(CO)cc(O)c2C(=O)c2c(O[C@@H]3OC(CO)[C@@H](O)[C@@H](O)[C@@H]3O)cccc21 (stereo partly drawn)	i	1
CCCCCCCCCCCC1=C(O)C(=O)C=C(O)C1=O	i	0.97
O=C(O)c1ccc(-c2noc(-c3ccccc3Cl)n2)cc1	i	0.73
CCCn1nc(NC(=O)c2ccco2)c2cc3ccc(C)cc3nc21	i	1
C[C@H]1C=CC(=O)O[C@H]1c1ccccc1	i	0.42
COc1cc2sc3ccc(C#Cc4ccc(N)cc4)cc3c(=O)c2cc1OC	i	0.75
COc1ccccc1N1CCN(CCN2C(=O)CC3(CCCC3)CC2=O)CC1	i	0.93
CCOC(=O)C[C@H]1c2ccccc2S(=O)(=O)N1Cc1cccc(C(F)(F)F)c1	i	0.75
COC(=O)CCc1ccc(OCC(O)CNC(C)C)cc1 (stereo not drawn)	i	0.73
C[C@@H](NCCc1ccc(O)cc1)[C@@H](O)c1ccc(O)cc1	i	0.86
CC(C)CCNC(=O)c1onc(CSc2ccccn2)c1C(=O)NCCC(C)C	i	1.1
COc1cc2c(c(OC)c1CC=C(C)C)C[C@H](c1ccc(O)cc1O)CO2	i	0.92
COc1cc(OC)cc(-n2c3nc4ccccc4nc3c3c(=O)n(CC4CCCO4)cnc32)c1 (stereo not drawn)	i	1
CCCC[C@@H]1CNC(=O)C(=O)N1CCc1cccc2ccccc12	i	0.85
OCC[C@@H]1C[C@H](O)[C@@H](O)[C@]2(CCCO2)O1	i	1
CN(C)CC[C@@H](c1ccc(Cl)cc1)c1ccccn1	i	0.88
Cc1cccc(C)c1NC(=O)C(C)N (stereo not drawn)	i	0.76

Next entries follow:
compound	HSV replic up	HSV replic up primary fold
CCO[C@@H]1OC(C(=O)O)=C[C@H](c2cn(C(C)=O)c3ccccc23)[C@H]1CCCO	i	0.97
CC(C)(C)OC(=O)N1CCN(C(=O)OCC2c3ccccc3-c3ccccc32)CC1C(=O)O (stereo not drawn)	i	0.86
CCOc1ccc(NC(=O)CSc2nc3c(c(=O)n2-c2ccccc2OC)SCC3)cc1	i	0.99
COc1cc(/C=C/C(=O)O)cc(OC)c1O	i	0.88
CC1(C)Cc2c(sc3c2c(=N)n(Cc2ccco2)c(=O)n3CC(=O)Nc2ccc(Cl)cc2)CO1	i	1
CC1Oc2cc3oc4c(O)c(O)ccc4c(=O)c3c(O)c2C1(C)C (stereo not drawn)	i	1
Cc1ccc(C(=O)C2=C(O)C(=O)N(CCCN(C)C)C23C(=O)N(C)c2ccccc23)o1 (stereo not drawn)	i	0.97
COC(=O)C[C@H]1c2ccccc2S(=O)(=O)N1Cc1ccc(OC)cc1	i	0.77
CCCCN1C(N)=NC[C@@H]1Cc1ccccc1	i	0.87
COc1cc(-c2ccc3oc(-c4ccsc4)cc3c2)cc(OC)c1OC	i	0.71
COC(=O)C[C@H]1c2cc(F)ccc2S(=O)(=O)N1C(C)C	i	0.94
COC(=O)C[C@](O)(CCCC(C)(C)O)C(=O)O[C@@H]1C(OC)=C[C@]23CCCN2CCc2cc4c(cc2[C@H]13)OCO4	i	0.47
Cc1nnc2sc(-c3ccc(-c4ccc(Cl)c(C(F)(F)F)c4)o3)nn12	i	1
COc1ccc(N2CC(C)Cn3c2nc2c3c(=O)n(CCc3ccccc3)c(=O)n2C)cc1 (stereo not drawn)	i	0.99
COC(=O)C1=C(C(=O)OC)[C@@H]2N(C)c3ccccc3[C@@]23C[C@@H](C(=O)OC)N(C(=O)c2ccco2)C3=N1	i	0.64
O=C([C@@H]1CC=C[C@@H]2CCN(C3CCCCC3)C(=O)[C@@H]21)N1CCN(c2ccccc2)CC1	i	0.87
COc1c(CC=C(C)C)c(O)cc2oc(=O)c3c4ccc(O)cc4oc3c12	i	0.85
CC(C)(C)c1ccc(-c2ccc3c(c2)S(=O)(=O)c2ccccc2C3=O)cc1	i	0.73
COc1cc2[nH]c3c(c2cc1OC)CCN1CCCC[C@@H]31	i	0.95
COc1ccccc1CN1C(=O)[C@@H]2Cc3c([nH]c4ccccc34)C(C)(C)N2C1=O	i	1
CC1(C)CC(=O)C=C(c2cc3ccccc3s2)C1	i	1.1
COc1ccc(C(=O)c2c(-c3ccc(OC)cc3)oc3ccc(-c4cc(OC)c(OC)c(OC)c4)cc23)cc1	i	0.81
O=C(NCc1ccccc1)C1=C[C@@H](c2ccc3c(c2)OCO3)C[C@@H](OCc2ccc(CO)cc2)O1	i	0.75
CNC(=O)[C@@H]1C[C@H]1[C@@H](NC(=O)CNC(=O)OCc1ccccc1)c1ccccc1	i	1.2
COC1(OC)C=CC(=O)C=C1NC(=O)c1ccccc1OC(C)=O	i	0.43
CN1CCN(c2nc(-c3ccccc3)nc3c2oc2ccccc23)CC1	i	0.92
